Assay outcomes (PubChem BioAssay)
SARS PLpro yeast = blocks SARS-CoV papain-like protease in a yeast assay | Potency, µM (series often up to 32.9 µM), without a hit: at the top dose activity, positive = growth rescue | S. cerevisiae expressing SARS-CoV PLpro, growth rescue; control for the full effect not named in the record | AID 485353 | 0.19% of 330,000 active; active means well fitted rising curve with a large enough effect; inconclusive means small, poorly fitted or top-dose-only effect; inactive means no such curve, though single readings can be large or run the other way; also: 0% is about no effect; nearly all actives have a fitted effect of over 55% in size; growth read by luminescence after 48 h
NS1 function inh = influenza NS1 inhibition; 0.4% of 270,000 active; S. cerevisiae slowed by influenza A NS1, growth recovery by OD600; Potency, µM (top dose mostly 46.1 µM), inactives show at the top dose activity, positive = more growth; AID 2326; active means well fitted rising curve with a large enough effect; inconclusive means small, poorly fitted or top-dose-only effect; inactive means no such curve, though single readings can be large or run the other way; also: nearly all actives have a fitted effect of over 50% in size
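Compounds were scored for reversing the slow growth caused by influenza A NS1 in S. cerevisiae, measured by optical density at 600 nm. Assay medium contained 2% galactose at pH 6.0; NS1-free yeast of the same strain were the positive control.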
RE007 growth inh = less growth of the S. pombe RE007 Vpr strain; S. pombe RE007 Vpr strain, BacTiter-Glo ATP luminescence, 24 h; control for the full effect not named in the record; Potency, µM (titrated, usually from 92.2 µM), for the others: at the highest dose activity change, negative = less growth; 0.21% of 360,000 active; active = well fitted falling curve with a large enough effect; inconclusive = small, poorly fitted or top-dose-only effect; inactive = no such curve, though single readings can be large or run the other way;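 also: % is scaled to controls: 0 for no effect and ±100 for the full control effect; nearly all actives have a fitted effect of over 50% in size; the assay follows cell death caused by Vpr and the record does not say whether a fall means rescue or toxicity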
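Fission yeast strain RE007, carrying one chromosomally integrated HIV-1 vpr copy, was seeded at OD 0.01 in PMG+AL medium with 23 nL pinned compound. After 24 h at 30 °C and 99% humidity, viability was read by BacTiter-Glo luminescence.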
Cruzain inh Det = cruzain (T. cruzi) inhibition with detergent; Potency, µM, for the others: max response, negative = inhibition, hits mostly inhibitors; purified cruzain, Z-FR-AMC fluorescence, 0.01% Triton; 0.43% of 200,000 active; P25779;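 also: plate controls were neutral wells for no effect and buffer without enzyme for full effect; nearly all actives have a fitted effect of over 40% in size; top concentration of the series not given in the record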
Target sequence (P25779 123-467 limits assumed): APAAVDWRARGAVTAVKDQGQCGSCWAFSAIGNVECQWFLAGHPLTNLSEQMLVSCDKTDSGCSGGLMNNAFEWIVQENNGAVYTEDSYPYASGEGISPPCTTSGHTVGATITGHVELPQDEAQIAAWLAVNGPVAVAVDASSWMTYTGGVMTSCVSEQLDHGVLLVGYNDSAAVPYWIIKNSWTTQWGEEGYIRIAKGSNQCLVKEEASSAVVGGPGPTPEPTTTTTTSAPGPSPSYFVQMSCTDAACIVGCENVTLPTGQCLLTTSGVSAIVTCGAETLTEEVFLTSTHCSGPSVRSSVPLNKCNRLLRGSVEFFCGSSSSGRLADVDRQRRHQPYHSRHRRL
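Sodium acetate buffer (100 mM, pH 5.5) containing 5 mM DTT and 0.01% Triton X-100 hosted 1.5 nM cruzain and test compound for 15 min at room temperature. Cleavage of 2 uM Z-FR-AMC was then tracked by fluorescence.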
Cruzain noTriton = blocks cruzain activity in detergent-free assay | 2.3% of 200,000 active | purified cruzain, Z-FR-AMC fluorescence, no detergent | P25779 | Potency, µM, inactives show max response, negative = inhibition, actives largely listed as inhibitors;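 also: plate controls were enzyme without inhibitor for no effect and buffer without enzyme for full effect; nearly all actives have a fitted effect of over 40% in size; top concentration of the series not given in the record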
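Detergent-free condition (0.00005% Triton X-100) in acetate buffer pH 5.5 with DTT. 1.5 nM enzyme and compound were pre-mixed 15 min, then 2 uM Z-FR-AMC substrate added; reaction progress from fluorescence change between first and third reads (60 s).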
MARV entry inh = inhibitors of Marburg virus binding or cell entry | Marburg virus pseudotyped entry inhibition, cell reporter; control for the full effect not named in the record; about a third of the inactives were read at about 46 µM | Potency, µM (top dose mostly 37.8 µM), for inactives: at the highest dose activity change, negative = inhibition, actives largely listed as inhibitors | 1.8% of 300,000 active | AID 540276; active = well fitted inhibition curve with a large enough effect; inconclusive = small, poorly fitted or top-dose-only effect, or effect the other way; inactive = flat fitted curve, though single readings scatter; tested in HEK293 cells; about a fifth of its hits are not listed in these tables; also: % is scaled to controls: 0 for no effect and ±100 for the full control effect; luciferase read-out
LASV entry inh = Lassa virus entry inhibition. Lassa virus pseudotype entry inhibition, cell reporter; control for the full effect not named in the record. Potency, µM (highest dose often 37.9 µM), without a hit: top-dose activity change, negative = inhibition, actives largely listed as inhibitors. 1.2% of 300,000 active; active means well fitted inhibition curve with a large enough effect; inconclusive means small, poorly fitted or top-dose-only effect, or effect the other way; inactive means flat fitted curve, though single readings scatter; tested in HEK293 cells; also: % is scaled to controls: 0 for no effect and ±100 for the full control effect; nearly all actives have a fitted effect of over 50% in size; luciferase read-out
2A StopGo = FMDV 2A StopGo reporter, luciferase signal | human cells with a luciferase reporter of 2A StopGo recoding; control for the full effect not named in the record | Potency, µM (series often up to 57.9 µM), for inactives: at the highest dose signal change, negative = less light | 1.2% of 410,000 active; active = well fitted falling curve with a large enough effect; inconclusive = small, poorly fitted or top-dose-only effect; inactive = no such curve, though single readings can be large or run the other way; tested in HEK293T cells; also: % is scaled to controls: 0 for no effect and ±100 for the full control effect; nearly all actives have a fitted effect of over 45% in size; luciferase light after 4 h
The depositor's hits bear a star; u = inconclusive; x = not tested or not shown; [ ] = dose if it differs, or a comment. Unless noted, calls follow the shape of the dose curve; as a rule, active = well fitted curve in the direction sought with a large enough effect; inconclusive = small, poorly fitted or top-dose-only effect, or another doubt; inactive = no such curve, though single readings can be large; an effect the other way counts as inactive or inconclusive. Potency is read from the fitted curve at half-maximal effect.

SMILES | SARS PLpro yeast | NS1 function inh | RE007 growth inh | Cruzain inh Det | Cruzain noTriton | MARV entry inh | LASV entry inh | 2A StopGo
Cc1cc2oc(C(=O)N(Cc3ccco3)C3CCS(=O)(=O)C3)cc(=O)c2cc1Cl (stereo not given) | 4.6% | -7.9% | -6.9% | -2.9% | u | -9.2% | -8.1% | -9.7%
Cc1cc(NC(=O)c2ccc3c(c2)N(Cc2cccc(Cl)c2)C(=O)c2ccccc2S3=O)ccc1Br (stereo not given) | x | x | x | 0.8% | 0.4% | x | 0.2%[46.1 µM] | -5.7%
CN(CC(=O)Nc1ccccc1Cl)C(=O)CN1C(=O)C2CCCCC2C1=O (stereo not given) | 1.2% | x | 3.1% | x | x | 25.0% | u | 2.8%
COc1ccc(-c2cc(C(F)(F)F)c(C#N)c(SCC(=O)Nc3ccc(C)cc3)n2)cc1 | 3.8% | 6.8% | 11.0% | 7.3% | u | 19.4% | 5.4% | -3.1%
Cc1ccc(CNC(=O)CSc2c3c(nc4ccc(Cl)cc24)CCCC3)o1 | 12.1% | -2.2% | 6.9% | -11.7% | -17.5% | u | 7.3µM* | u
O=C(CSc1nnnn1-c1ccc(Cl)cc1)Nc1cccnc1Cl | u | 20.5% | 38.8% | -2.3% | -14.8% | -0.2% | 5.3% | u
O=S(=O)(NCCc1cn2ccccc2n1)c1cccs1 | 3.9% | -12.7% | 5.5% | -6.7% | -18.3% | x | x | 16.0%
COc1cccc(N2CCN(C(=O)c3ccc(N4C(=O)NC5CC4(C)Oc4ccccc45)cc3)CC2)c1 (stereo not given) | -1.1% | 6.7% | 24.9% | 3.2% | u | 3.3% | 10.1% | -22.9%
CC(O)CNc1nc2c(c(=O)n(C)c(=O)n2C)n1C/C=C/c1ccccc1 (stereo not given) | 7.9% | 0.3% | 1.6% | -3.1% | 0.5% | -9.6% | u | x
Cc1cccc(NC(=O)CSc2nc(N)c(NC(=O)c3cccs3)c(=O)[nH]2)c1 | -1.1% | 12.0% | -0.3% | 0.6% | -17.9% | -2.2% | -2.2% | -21.3%
O=C(Nc1ccc(F)cc1)Nc1nnc(-c2ccco2)s1 | 0.4% | x | 9.1% | x | x | u | 13.2%[46.1 µM] | -5.8%
O=C(O)c1cc2c(o1)CCC/C2=N\O | -0.4% | 6.4% | -4.3% | 5.7% | -3.5% | 1.3% | -29.8%[14.3 µM] | 14.2%
COc1ccc(-c2nc(SCCOc3cc(C)ccc3C(C)C)n3[nH]c(=O)cc3n2)cc1 | x | x | x | 0.0% | 4.6% | x | 1.4%[46.1 µM] | u
Brc1ccc(-c2nn[nH]n2)cc1 | -2.1% | 11.1% | -8.4% | x | x | x | x | -8.9%
CCOC(=O)NCc1ccc(S(=O)(=O)Nc2ccccc2C)cc1 | -3.1% | -1.9% | 2.7% | 1.6% | -1.2% | -18.6% | -2.3% | -15.4%
CCCCSCCCNC(=O)c1cn(C)c2ccc(S(=O)(=O)N3CCCCCC3)cc2c1=O | x | x | x | -2.9% | -10.8% | 10.4%[46.1 µM] | -4.7%[46.1 µM] | -5.3%
CC(C)(C)NC(=O)Nc1cccc(Cl)c1Cl | -3.8% | -5.2% | -9.9% | x | x | u | 1.3% | -26.3%
NS(=O)(=O)c1ccc(NC(=O)/C=C/c2ccccc2[N+](=O)[O-])cc1 | 2.5% | x | 2.9% | x | x | -2.5%[46.1 µM] | -0.7% | -8.8%
COc1cc(OC)cc(-n2nnnc2SCC(=O)NCc2cccs2)c1 | 0.2% | 3.8% | 29.1% | x | x | -1.6%[46.1 µM] | -1.3% | 30.8%[activator]
COc1ccc(C(=O)Nc2ccc(SC(F)F)cc2)cc1 | -2.2% | 5.3% | 1.8% | -1.2% | u | u | 15.0% | 10.0%
Cc1cc(C(=O)OCC(=O)NC2CCS(=O)(=O)C2)c(C)n1-c1ccccc1 (stereo not given) | 2.5% | -4.0% | -11.8% | 2.1% | 7.0% | 0.8% | -4.5% | u
CC1CCc2nc(NC(=O)C3COc4ccccc4O3)sc2C1 (stereo not given) | -36.2% | 5.6% | -29.3% | -10.5% | 7.0% | x | x | 15.8µM*
Cc1cc(NC(=O)CCSc2ccccc2)no1 | -1.6% | 4.0% | -11.5% | x | x | u | 19.4%[46.1 µM] | 9.1%
O=C(OCCCC(=O)N1CCOCC1)c1ccccc1 | -4.1% | -1.1% | 13.6% | 3.8% | 3.6% | -3.2% | 6.5% | -3.2%
Cc1ccc(S(=O)(=O)CCc2nnc(NC(=O)c3ccccn3)s2)cc1 | 18.7% | -14.1% | -16.2% | 3.0% | 0.7% | u | -19.5% | -14.2%
The results go on.
SMILES | SARS PLpro yeast | NS1 function inh | RE007 growth inh | Cruzain inh Det | Cruzain noTriton | MARV entry inh | LASV entry inh | 2A StopGo
CC(C)CC(C(=O)O)N1C(=O)C2C3C=CC(C2C1=O)C1C(=O)N(C(CC(C)C)C(=O)O)C(=O)C31 (stereo not given) | -0.5% | 11.9% | 2.6% | x | x | x | x | -11.9%
COc1ccc(S(=O)(=O)N2CCCCCC2)cc1N(C)S(=O)(=O)c1ccc(C)cc1 | -17.8% | 29.5% | 3.8% | -4.0% | 11.6% | u | u | -2.0%
COc1ccc(C(=O)COc2ccc(NC(C)=O)cc2)cc1 | 2.3% | -4.9% | -2.1% | -3.1% | -25.2% | 14.9% | 0.3% | x
COc1ccc(OC)c(Nc2nc(C3CC3)nc3c2nnn3Cc2ccccc2)c1 | 2.1% | 18.6% | 16.5% | -10.1% | -4.6% | -1.1% | -4.1% | -10.3%
O=C(Nc1ccccc1)O/N=C(\c1ccccc1)c1ccccn1 | 6.7% | -5.2% | -16.5% | -2.4% | -5.6% | 36.1% | 21.7% | 21.4%
Cc1ccsc1C(=O)N1CC=C(c2ccccc2)CC1 | 0.2% | x | -6.5% | x | x | 7.6% | 21.1% | 15.7%
COc1ccc(-c2nc3scc(CCNS(=O)(=O)c4ccc5c(c4)OCCO5)n3n2)cc1OC | x | x | x | -3.3% | 4.4% | x | 12.1%[46.1 µM] | 10.9%
COc1ccc(-c2cccc(NS(=O)(=O)c3cc([N+](=O)[O-])ccc3Cl)c2)nn1 | -5.6% | x | -0.5% | x | x | -13.9%[46.1 µM] | 11.1% | -3.3%
Cc1cc(C(=O)O)c(C)n1Cc1ccncc1 | -0.9% | 0.4% | -12.0% | x | x | 6.8% | 14.6% | 2.2%
CCCOc1ccc(Cn2ccnc2)cc1[N+](=O)[O-] | -24.3% | 2.7% | 18.4% | -1.2% | 18.4% | 1.0% | u | -11.7%
CC(C)CN(C(=O)C1CC1)c1c(N)n(Cc2ccccc2)c(=O)[nH]c1=O | 11.4% | x | -6.0% | x | x | 2.4%[46.1 µM] | -13.3% | -3.5%
CC(C)c1ccc(N(CC(=O)NC2CCCCC2)C(=O)CCC(=O)Nc2ccccn2)cc1 | -0.6% | -0.8% | 3.1% | x | x | -8.0%[46.1 µM] | 14.8% | -3.2%
COc1ccc(-c2nc3sc(CCNC(=O)C(=O)Nc4ccc(OC)c(OC)c4)c(C)n3n2)cc1 | x | x | x | 0.7% | -14.9% | x | 16.0%[46.1 µM] | -4.5%
Cc1ccc(NC(=S)NCCc2ccccc2)c(C)c1 | -31.0% | -22.1% | -17.5% | -2.5% | -13.0% | 30.1% | 9.1% | -4.1%
CN(C)C=Nc1nonc1-c1ncn[nH]1 | -6.6% | -0.1% | 1.1% | -2.5% | 1.2% | 15.1% | 7.5% | -7.4%
CCOCCCNC(=O)C(c1ccc(C)cc1)N(Cc1ccc2c(c1)OCO2)C(=O)CNC(C)=O (stereo not given) | -5.7% | -6.8% | 14.9% | 3.3% | u | -1.1% | 21.1% | 7.8%
CCOC(=O)C(CC)(CCC(=O)O)c1csc(Nc2ccc(C)cc2)n1 (stereo not given) | 1.1% | 7.5% | -10.1% | x | x | 3.5%[46.1 µM] | -5.4% | 2.9%
Cc1cccc(C(=O)Nc2ncc(CN3CCOCC3)s2)c1 | 1.5% | 1.5% | 5.0% | 4.3% | 8.2% | 6.8% | -9.7% | x
S=C(NCCc1ccccc1)NC1CC2CCC(C1)N2Cc1ccccc1 (stereo not given) | 0.7% | 0.2% | -9.5% | x | x | u | u | -4.4%
CC(C(N)=O)N1CC(c2ccccc2)CC1=O (stereo not given) | -0.8% | -0.1% | -7.6% | 2.3% | -1.1% | 20.1% | -2.5% | 0.0%
Clc1ccc(-c2nnc(-c3ccccc3Cl)o2)cc1 | 5.3% | -0.3% | -25.1% | -3.5% | -6.2% | u | u | -3.2%
CN1CCN(C(=O)c2cnn3c(C(F)(F)F)cc(-c4cccs4)nc23)CC1 | 10.4% | 5.1% | 2.4% | -6.9% | -11.6% | 4.8% | 7.3% | -13.9%
Cn1c(Cc2nc(-c3cnccn3)no2)nnc1SCC(=O)Nc1ccccc1 | -1.1% | 1.3% | 0.0% | x | x | 2.0%[46.1 µM] | 25.4%[46.1 µM] | -14.6%
CC1Cc2ccccc2N1C(=O)c1cc2sccc2n1Cc1ccccc1 (stereo not given) | -20.6% | 12.0% | 9.4% | -2.6% | 25.1µM* | -11.7%[46.1 µM] | 2.3% | -22.5%
COC(=O)CSc1nnc(-c2ccccc2O)n1-c1ccc(C)cc1 | -0.9% | -10.2% | -0.7% | 3.6% | 12.5% | -5.3% | -6.1% | -15.9%
Continuation.
SMILES | SARS PLpro yeast | NS1 function inh | RE007 growth inh | Cruzain inh Det | Cruzain noTriton | MARV entry inh | LASV entry inh | 2A StopGo
CCS(=O)(=O)N1CCc2cc(C(=O)NC(C)c3ccccc3)ccc21 (stereo not given) | x | x | x | -4.4% | 1.8% | -29.8%[46.1 µM] | -13.3%[46.1 µM] | -22.0%
Cc1[nH]c2ccccc2c1/C=N/NC(=O)C1CC1(c1ccccc1)c1ccccc1 (stereo not given) | 10.1% | 8.4% | -13.4% | -5.9% | -13.0% | u | u | 39.8µM*
CCOc1ccc(/C=C2\SC(=S)N(CCC(=O)N(CCO)c3ccccc3)C2=O)cc1 | 1.0% | 18.8% | 4.0% | x | x | u | u | -18.8%
CC(=O)c1cc2c(cc1NC(=O)C1CN(C(C)=O)c3ccccc3O1)OCO2 (stereo not given) | 0.5% | x | -16.3% | x | x | 2.1% | 0.9% | -5.0%
CN1CC(C(=O)c2ccccc2)C(c2ccccc2)C1 (stereo not given) | -0.7% | 2.9% | -0.1% | x | x | u | u | 5.7%
COc1ccc(S(=O)(=O)N(CCc2ccccc2)CC(=O)O)cc1OC | -2.6% | -0.1% | -7.8% | 1.9% | -7.5% | -2.9% | -0.8% | x
CCN(C(=O)COC(=O)c1ccc2ccccc2n1)c1c(N)n(Cc2ccccc2)c(=O)[nH]c1=O | -0.6% | x | 2.6% | x | x | 1.8% | -9.9% | -17.0%
